# Screens (PubChem)
# miR-21 FLuc: raises the signal of a miR-21 reporter | HeLa miR-21 FLuc reporter, luciferase, 48 h | AID 2288 | Potency, µM (top dose mostly 38.3 µM), inactives show at the top dose reporter change, positive = more light | 340,000 tested, under 10 active; active = well fitted rising curve with a large enough effect; inconclusive = small, poorly fitted or top-dose-only effect; inactive = no such curve, though single readings can be large or run the other way;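 further: % of control where 0% means no effect; miR-21 action dims this reporter so a rising signal means less miR-21 action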
#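 Luminescence from a firefly luciferase reporter carrying a miR-21 binding site downstream, stably expressed under a CMV promoter in HeLa cells that make miR-21 endogenously, reports miRNA modulation after 48 h compound exposure up to approximately 40uM final.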
# GLA inh pH 4.5: blocks human alpha-galactosidase A at pH 4.5 | P06280 | purified enzyme, 4-MU-alpha-Gal fluorescence, pH 4.5 | activity change, negative = inhibition, % at 105 µM | 230,000 tested, under 10 active; inconclusive = small, poorly fitted or top-dose-only inhibition, or a rising curve; inactive = flat fitted curve, though single readings scatter; no compound was filed as active;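 further: 0% = full activity with enzyme and -100% = basal without enzyme; dose as in the result columns while the protocol names 77 µM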
# Rango-impB inh: inhibitors of Rango-importin beta complex formation; Q14974; Rango CFP/YFP FRET sensor + importin beta, 45 min; Potency, µM (doses to about 92.2 µM), without a hit: at the top dose inhibition of complex formation; actives 0.031% (n = 340,000); AID 540263; active = rising FRET ratio curve, often small or poorly fitted; inconclusive = mostly compound fluorescence or quenching in the first reads; inactive = flat curves in all reads;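 further: potency means the concentration at half of the fitted maximal effect; 0% = DMSO wells and 100% = buffer wells lacking importin beta; nearly all actives have a fitted effect of over 15% in size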
# Target sequence (Q14974 whole entry, looked up): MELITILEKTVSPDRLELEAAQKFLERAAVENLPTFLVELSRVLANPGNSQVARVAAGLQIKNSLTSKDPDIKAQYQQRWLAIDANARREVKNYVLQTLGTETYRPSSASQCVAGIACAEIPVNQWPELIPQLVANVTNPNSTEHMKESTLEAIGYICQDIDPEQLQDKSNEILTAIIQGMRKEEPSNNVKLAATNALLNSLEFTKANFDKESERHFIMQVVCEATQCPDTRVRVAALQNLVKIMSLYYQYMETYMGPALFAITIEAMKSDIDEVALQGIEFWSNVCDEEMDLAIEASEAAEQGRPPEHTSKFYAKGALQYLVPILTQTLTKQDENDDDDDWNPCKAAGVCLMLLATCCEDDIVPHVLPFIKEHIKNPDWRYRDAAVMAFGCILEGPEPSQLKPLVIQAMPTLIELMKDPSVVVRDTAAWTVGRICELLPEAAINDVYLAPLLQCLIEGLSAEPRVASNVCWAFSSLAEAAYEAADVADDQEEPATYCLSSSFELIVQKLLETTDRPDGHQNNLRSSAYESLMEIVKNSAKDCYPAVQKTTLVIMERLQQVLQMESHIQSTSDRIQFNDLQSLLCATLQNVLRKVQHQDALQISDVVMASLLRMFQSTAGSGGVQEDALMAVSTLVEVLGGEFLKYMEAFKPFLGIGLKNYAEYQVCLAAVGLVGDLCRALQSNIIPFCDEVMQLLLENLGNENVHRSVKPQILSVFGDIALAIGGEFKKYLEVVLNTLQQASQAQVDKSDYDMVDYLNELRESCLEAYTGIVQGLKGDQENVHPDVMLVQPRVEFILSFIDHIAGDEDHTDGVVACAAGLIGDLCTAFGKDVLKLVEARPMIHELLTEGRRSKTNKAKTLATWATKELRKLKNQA
#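 FRET biosensor (snurportin 1 IBB flanked by EYFP and cerulean), 50 nM, with compound 5 min, then 0.125 microM importin beta in PBS, 1 mM DTT, 0.02% Tween-20, 0.1% BSA. CFP/YFP ratio read after 45 min at room temperature; pre-read flags interference.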
# Rango release inh: prevents RanGTP from dissociating the Rango-importin beta complex. O95149+P62826. Biochemical FRET Rango-importin beta, RanGTP-induced dissociation. Potency, µM (doses to about 46.1 µM), inactives show top-dose activity change, negative = inhibition. actives 0.071% (n = 340,000). AID 540253; active means falling FRET ratio curve, often poorly fitted, with flat reads before Ran was added; inconclusive means other falling curves, or compound fluorescence or quenching; inactive means flat or rising ratio curve;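 further: potency means the concentration at half of the fitted maximal effect; % of control where 0% means no effect; nearly all actives have a fitted effect of over 45% in size; -100% = wells without RanGTP and RCC1; the record marks most hits as doubtful in a second field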
#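 Compounds preincubate 5 min with complex of recombinant Rango and importin beta in PBS with 1 mM DTT. Ran (0.6 uM) loaded with 2 mM GTP plus 0.2 uM RCC1 starts dissociation; FRET is recorded 45 min later.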
# Numbers without * were called inactive; ? = inconclusive; nt = no result given; & = joins results of further samples; [ ] = another dose, or the depositor's remark.
SMILES,miR-21 FLuc,GLA inh pH 4.5,Rango-impB inh,Rango release inh
CN1CCc2c(sc3c2c(=O)n(-c2ccccc2)c2n[nH]c(=S)n32)C1,3%,1,4.0%,-10%
CC(C)(C)c1ccc(NC(=O)C2=CC=CN3CCS(=O)(=O)N=C23)cc1,nt,nt,0.0%,12%
CCOc1ccc(C(=O)OCC(=O)N2CC(C)OC(C)C2)cc1OCC (configuration not stated),1%,nt,-1.2%,-13%
Cc1ccc(S(=O)(=O)c2nnn3c2nc(NCCCN2CCCC2=O)c2ccccc23)cc1C,-8%,nt,-1.2%,-3%
Cc1ccc(C)c2[nH]c(=O)c(CN(CCN3CCCC3)C(=O)Nc3ccc(F)cc3)cc12,-13%,-4,-1.2%,2%
O=C(NCCCN1CCc2ccccc2C1)Nc1ccc(Br)cc1,-19%,-7,-0.2%,-13%
NC(=O)c1ccc(NC(=O)Cn2c(=O)n(-c3ccccc3)c(=O)c3oc4ccccc4c32)cc1,-11%,-3,-4.1%,-5%
O=C(NC1=NCCS1)c1sc2ccccc2c1Cl,-47%,-9,8.2%,12%
Cc1noc(C)c1CSCC(=O)N1CCN(c2ccc(F)cc2)CC1,8%,7,-1.6%,4%
C/C(CC(=O)NCc1ccco1)=N\NC(=O)Cc1ccccc1,-3%,4,-2.7%,0%
COC(=O)c1ccc(C(C2C(=O)CC(C)(C)CC2=O)C2C(=O)CC(C)(C)CC2=O)cc1,-2%,4,-1.0%,16%
C=CCN(CC(=O)c1sc(C(=O)OCC)nc1C)c1cccc(Br)c1,nt,nt,-0.6%,11%

# Additional compounds follow.
SMILES,miR-21 FLuc,GLA inh pH 4.5,Rango-impB inh,Rango release inh
CN1CCN(S(=O)(=O)c2cccc(C(=O)N(c3ccccn3)C3CCCCC3)c2)CC1,-1%,-3,0.6%,-2%
NC(=O)CC(NC(=O)c1ccccc1)c1ccc(N2CCN(c3ccccc3)CC2)c([N+](=O)[O-])c1 (configuration not stated),6%,nt,-0.5%,-7%
COc1cc(OC)cc(C(=O)NCCCn2ccnc2)c1,0%,nt,2.3%,4%
CC(C)CC(=O)O/N=C1\C(=O)N(Cc2ccc(Cl)cc2)c2ccc([N+](=O)[O-])cc21,-1%,-14,nt,nt
COc1ccc(C(=O)NC(C)c2nc3ccccc3[nH]2)cc1OC (configuration not stated),-8%,-1,-2.3%,-3%
O=C(Nc1ccc(F)cc1)C1CCN(S(=O)(=O)c2cccs2)CC1,-1%,1,3.9%,3%
CCn1c(COc2ccccc2C)nnc1SCC(=O)NCc1ccccc1,2%,-1,-1.7%,23%
Cc1cc(C)n(S(=O)(=O)/C=C/c2ccccc2)n1,?,6,0.1%,?
COc1ccccc1-c1sc2ccccc2c1-c1ccc(O)cc1,nt,nt,-1.2%,-9%
CN(CCO)S(=O)(=O)c1ccc2c(c1)C(=NN)c1cc(S(=O)(=O)N(C)CCO)ccc1-2,-4%,nt,-2.1%,8%
Cc1c(C(=O)OCC(=O)Nc2c(C)n(C)n(-c3ccccc3)c2=O)oc2ccccc12,0%,7,-0.9%,-5%
CCc1ccc(NC(=S)N(CCN2CCOCC2)Cc2ccccc2F)cc1,-6%,-1,0.1%,18%

# Looked up above.
# Value of Cc1ccc(S(=O)(=O)c2nnn3c2nc(NCCCN2CCCC2=O)c2ccccc23)cc1C in Rango release inh: -3%
# Value of CCOc1ccc(C(=O)OCC(=O)N2CC(C)OC(C)C2)cc1OCC (configuration not stated) in Rango release inh: -13%
# Value of O=C(Nc1ccc(F)cc1)C1CCN(S(=O)(=O)c2cccs2)CC1 in miR-21 FLuc: -1%
# Value of CN1CCN(S(=O)(=O)c2cccc(C(=O)N(c3ccccn3)C3CCCCC3)c2)CC1 in Rango-impB inh: 0.6%
# Value of Cc1ccc(C)c2[nH]c(=O)c(CN(CCN3CCCC3)C(=O)Nc3ccc(F)cc3)cc12 in Rango release inh: 2%
# Value of CN1CCc2c(sc3c2c(=O)n(-c2ccccc2)c2n[nH]c(=S)n32)C1 in Rango release inh: -10%
# Value of CCc1ccc(NC(=S)N(CCN2CCOCC2)Cc2ccccc2F)cc1 in GLA inh pH 4.5: -1

# Going on with the list:
SMILES,miR-21 FLuc,GLA inh pH 4.5,Rango-impB inh,Rango release inh
CCC(C)Sc1nc2c([nH]c3ccccc32)c(=O)n1C (configuration not stated),-1%&-1%,3,1.6%,-10%
Cc1cc(C)c2c(SC(C)C)nc(N)nc2n1,6%,4,-0.1%,-2%
CC(=O)NC(=S)Nc1sc2c(c1C(N)=O)CCC(C)C2 (configuration not stated),-58%,6,-0.1%,21%
C=C1CCC(OC(C)=O)C2(C)CCC3C(C)C(=O)OC3C12O (configuration not stated),-1%,nt,3.9%,-3%
CC(=O)Nc1ccc(S(=O)(=O)C(C#N)c2nc3ccccc3nc2NCCN2CCOCC2)cc1 (configuration not stated),0%,8,0.5%,4%
CC(=O)Oc1ccc(N(C(C)=O)S(=O)(=O)c2cccs2)c2ccccc12,?,4,-0.8%,1%
Cc1cc(C)nc(NS(=O)(=O)c2ccc(NC(=O)C3CC(=O)N(c4ccccc4)C3)cc2)n1 (configuration not stated),-11%,1,0.1%,-2%
COc1ccc(S(=O)(=O)N2CCCOC2CNC(=O)C(=O)NCc2ccncc2)cc1 (configuration not stated),-4%,nt,-0.1%,9%
Cc1cccc2c(C(=O)Nn3cnnc3)cc(-c3ccccc3Cl)nc12,-2%,-2,1.8%,0%
O=C(Nc1ccccc1SCC1CSc2nc3ccccc3c(=O)n21)c1ccccc1Cl (configuration not stated),11%,0,-4.0%,3%
Cc1nn(CCOc2cccc(Br)c2)c(C)c1[N+](=O)[O-],0%,1,-2.9%,27%
COc1ccc(-n2c(SCC(=O)Nc3ccccc3)nc3c(c2=O)SCC3)cc1,-10%,0,-0.3%,-6%

# Sorted by value in Rango-impB inh (highest first): 4 from the list above.
SMILES,miR-21 FLuc,GLA inh pH 4.5,Rango-impB inh,Rango release inh
CC(=O)Nc1ccc(S(=O)(=O)C(C#N)c2nc3ccccc3nc2NCCN2CCOCC2)cc1 (configuration not stated),0%,8,0.5%,4%
Cc1cc(C)c2c(SC(C)C)nc(N)nc2n1,6%,4,-0.1%,-2%
COc1ccc(-n2c(SCC(=O)Nc3ccccc3)nc3c(c2=O)SCC3)cc1,-10%,0,-0.3%,-6%
CCOc1ccc(C(=O)OCC(=O)N2CC(C)OC(C)C2)cc1OCC (configuration not stated),1%,nt,-1.2%,-13%

# The list goes on:
SMILES,miR-21 FLuc,GLA inh pH 4.5,Rango-impB inh,Rango release inh
C[C@@H]1NS(=O)(=O)[C@H]2C[C@@H]3C=C[C@]2(O3)[C@H]1OC(=O)c1ccccc1Br,nt,nt,0.1%,2%
CCOc1cc(-c2nc3ccccn3c2NCC2CCCO2)ccc1O (configuration not stated),2%,2,-0.1%,-5%
COCCNC(=O)c1cc2oc3ccccc3c2n1C,-65%,4,-2.4%,-6%
Cc1ccc(-c2nn(-c3cccc(F)c3)cc2CNCCc2ccncc2)o1,-33%,-2,-3.6%,-5%
CCOc1ccc(-c2[nH]ncc2-c2ccc(OC)c(OC)c2)c(O)c1,?,2,-0.7%,16%
CCOC(=O)N1CCN(CC(=O)c2ccc(O)c(C)c2O)CC1,-26%,nt,0.7%,14%
CCOC(=O)CSc1ccc(C(=O)N2CCN(C)CC2)cc1[N+](=O)[O-],-3%,4[21.1 µM],2.4%,-7%
CC(C)Oc1ccc(C(=O)N2CCCC2C(=O)O)cc1 (configuration not stated),-1%,0,?,5%
COc1ccc(C(=O)Nc2nnc(S(=O)(=O)N3CCC(C)CC3)s2)cc1OC,0%&-67%,nt,8.4%,4%
CCCNC(=O)c1ccc(N2CCC3(CC2)CC(c2cccc(Br)c2)=NO3)c([N+](=O)[O-])c1,16%,nt,-3.4%,5%
COc1ccc(NC2=NC(=S)N(c3ccc(C)cc3)C23CCCCC3)cc1,-1%,1,0.3%,20%
CCN(CC)C(=O)c1sc(N)c(C(=O)OC(C)C)c1C,-15%,16,3.7%,11%

# Additional entries.
SMILES,miR-21 FLuc,GLA inh pH 4.5,Rango-impB inh,Rango release inh
S=c1nc(SCc2ccccc2)[nH]c2ccccc12,-4%,1,-0.7%,-3%
C1CCC(c2nn3c(-c4n[nH]c5c4CCC5)nnc3s2)CC1,-18%,0,-3.1%,-6%
O=C(Cn1cnc(Cl)c1Cl)c1ccccc1,-6%,5,2.2%,-20%
Cc1ccc(-c2noc(CNC(=O)COc3ccccc3C)n2)cc1,-5%,nt,-0.8%,0%
COc1cccc(CC(=O)N2CCCC(CO)(Cc3ccc(F)cc3F)C2)c1 (configuration not stated),1%,nt,-1.3%,1%
Cc1nn(-c2ccccc2)c(/N=C/c2ccc(O)cc2)c1-c1ccccc1,-59%,-11,-0.8%,0%
COc1ccc(CNCCS(=O)(=O)NCc2ccc(OC)cc2)cc1,nt,nt,1.2%,-9%
O=C(NCc1ccncc1)c1cccc(S(=O)(=O)Nc2ccc(SC(F)F)cc2)c1,nt,nt,-3.8%,-11%
C=C1C(=O)[C@@]23[C@H](O)C[C@@H]4C(C)(C)CC[C@H](O)[C@@]4(C)[C@@H]2CC[C@@H]1[C@H]3O,29%,0,0.3%,0%
CCOc1ccc(-n2c(C)c(C(C)=O)c3cc(O)ccc32)cc1,14%,nt,0.3%,2%
CNS(=O)(=O)c1cccc(C(=O)Nc2cccnc2)c1,1%,-2,?,-24%
CCOc1ccc(C(=O)Nc2ccc3c(c2)C(=O)NC3=O)cc1,-3%,nt,?,-18%

# Additional compounds
SMILES,miR-21 FLuc,GLA inh pH 4.5,Rango-impB inh,Rango release inh
O=C1CCN(Cc2ccccc2)S(=O)(=O)c2ccc(C(F)(F)F)cc21,nt,nt,5.0%,1%
CCN(CC)S(=O)(=O)c1ccc2c(c1)nc(CCC(=O)Nc1ccc3c(c1)OCO3)n2C,-3%,1,-0.9%,-6%
Cc1ccccc1-c1nnc(SCC(=O)NCC2CCCO2)o1 (configuration not stated),nt,nt,0.1%,3%
Cc1ccc(S(=O)(=O)N2CCOC2CNC(=O)C(=O)NCCc2ccccc2)cc1 (configuration not stated),13%,6,-1.3%,-10%
Cc1ccc(C(=O)C(C)OC(=O)CN2C(=O)NC3(CCCC3)C2=O)cc1 (configuration not stated),nt,nt,0.6%,-11%
Cc1ccc(C)c(C(=O)NC2CC(C)(C)NC(C)(C)C2)c1,-9%,-8,3.4%,0%
CCn1ccnc1C(O)c1ccc(N(C)C)cc1 (configuration not stated),-25%,-5,2.9%,2%
CC(C)c1nc(SCC(=O)Nc2ccc3c(c2)OCO3)n[nH]1,0%,1,-0.3%,0%
Cc1ccc(C(=O)/C=C/c2ccc3c(c2)OCO3)o1,-7%,-5,?,-20%
CCN(C(=O)COC(=O)c1ccc2c(c1)OCO2)c1ccc(F)cc1,nt,nt,-0.7%,15%
O=C(c1ccccc1)N1CCN(c2ccc([N+](=O)[O-])c(NCc3cccnc3)c2)CC1,-2%,-7,-2.2%,-1%
CCOC(=O)c1c(C)n(OCc2ccccc2)c2ccc3c(no[n+]3[O-])c12,-8%,1,4.1%,-14%

# The list is partial. The share of hits here may be higher or lower than overall.
